AF4-AF9 inh: inhibitors of human MLL-AF4/AF9 interaction; AlphaScreen, biotin-AF4 peptide binding to FLAG-AF9; inhibition, % at 10 µM; hit rate 0.47% among 350,000; AID 651704;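 active = every replicate reaching a set inhibition limit, whatever the replicate mean, cut at about 25% in these data; inconclusive = mean inhibition reaches that limit but some replicates miss it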;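 note: 0% = plate neutral control median and 100% = total signal loss; the record names both 10 and 1 µM as test concentration; the first replicate is given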
Target sequence (P42568 whole entry, looked up): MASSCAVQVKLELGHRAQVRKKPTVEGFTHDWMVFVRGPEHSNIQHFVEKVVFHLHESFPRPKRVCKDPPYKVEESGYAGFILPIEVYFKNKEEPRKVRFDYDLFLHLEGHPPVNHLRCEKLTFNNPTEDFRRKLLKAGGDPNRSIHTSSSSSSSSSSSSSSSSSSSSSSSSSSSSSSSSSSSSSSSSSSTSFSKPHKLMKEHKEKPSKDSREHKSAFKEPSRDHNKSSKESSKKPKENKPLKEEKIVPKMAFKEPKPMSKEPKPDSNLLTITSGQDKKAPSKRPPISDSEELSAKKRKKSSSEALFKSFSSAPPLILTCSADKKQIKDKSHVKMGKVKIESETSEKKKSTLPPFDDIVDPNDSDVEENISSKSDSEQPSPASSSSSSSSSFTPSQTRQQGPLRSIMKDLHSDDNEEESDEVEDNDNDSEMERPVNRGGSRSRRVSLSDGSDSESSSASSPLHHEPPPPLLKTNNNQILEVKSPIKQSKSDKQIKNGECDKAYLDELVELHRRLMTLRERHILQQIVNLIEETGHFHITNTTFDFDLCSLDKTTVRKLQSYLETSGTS
The depositor's hits bear a star; u = inconclusive; & = joins results of further samples.

CCCNC(=O)C[C@H]1CC[C@@H]2[C@H](COC[C@@H](O)CN2C(=O)c2cc(Cl)cc(Cl)c2)O1
  AF4-AF9 inh: -1.9

COc1ccc(S(=O)(=O)Nc2ccc3c(c2)CC(=O)N([C@@H](C)CO)C[C@H](C)[C@H](CN(C)Cc2ccc4c(c2)OCO4)O3)cc1
  AF4-AF9 inh: -0.8

NCCCCCNC(=O)[C@H]1C[C@H]2C(=O)NCC(=O)N2[C@H]1c1cccc(OCCO)c1
  AF4-AF9 inh: -12

C[C@H]1CN([C@@H](C)CO)C(=O)Cc2cc(NS(C)(=O)=O)ccc2O[C@H]1CN(C)C
  AF4-AF9 inh: 0.6

CO[C@@H]1CN(C)C(=O)c2cc(NC(=O)NC3CCCCC3)ccc2OC[C@@H](C)N(CC2CCOCC2)C[C@@H]1C
  AF4-AF9 inh: -16&2.9

CC(C)NC(=O)N(C)C[C@@H]1Oc2c(NC(=O)NC3CCCCC3)cccc2C(=O)N([C@H](C)CO)C[C@@H]1C
  AF4-AF9 inh: -1.2

Cc1ccc(S(=O)(=O)Nc2ccc3c(c2)C(=O)N([C@@H](C)CO)C[C@@H](C)[C@H](CN(C)Cc2ccc(-c4ccccc4)cc2)O3)cc1
  AF4-AF9 inh: -1.5

C[C@H](O)C#Cc1ccc([C@H]2[C@H]3CN(C(=O)c4cccc(F)c4)CCCCN3[C@H]2CO)cc1
  AF4-AF9 inh: 1.3

CN1C(=O)c2cc(NC(=O)Cc3cccs3)ccc2OC[C@H]2O[C@@H](CC(=O)NCCc3ccncc3)CC[C@@H]21
  AF4-AF9 inh: -3.0

C#CCN(C[C@H]1[C@H](OC(=O)NC2CC2)[C@H](OC(=O)NC2CC2)C[C@H]2C(=O)N(c3ccccc3)C(=O)[C@@H]12)S(=O)(=O)c1ccc(C)cc1
  AF4-AF9 inh: 1.9

CCNC(=O)C[C@H]1CC[C@@H](NC(=O)C2CCC2)[C@@H](CO)O1
  AF4-AF9 inh: -0.9

N#CCC1(O)C(=O)Nc2ccccc21 (stereo not given)
  AF4-AF9 inh: 5.4

C[C@@H]1CN([C@H](C)CO)C(=O)c2cccc(NC(=O)C3CCCCC3)c2O[C@H]1CN(C)C(=O)Nc1cccc2ccccc12
  AF4-AF9 inh: 1.6

C[C@H](CO)N1C[C@H](C)[C@H](CN(C)Cc2ccc(C(F)(F)F)cc2)Oc2c(NC(=O)c3ccc(-c4nccs4)cc3)cccc2C1=O
  AF4-AF9 inh: 1.7

Cc1ccc(S(=O)(=O)N[C@H]2C=C[C@@H](CC(=O)NCCN3CCCCC3)O[C@H]2CO)cc1
  AF4-AF9 inh: 0.3

COc1ccc(-c2c(C(=O)c3ccccc3)[nH]c(N)c2C(=O)NC2CC2)cc1OC
  AF4-AF9 inh: 3.0

CO[C@@H]1CN(C)C(=O)c2ccc(NC(=O)NC(C)C)cc2OC[C@@H](C)N(C(=O)CN(C)C)C[C@H]1C
  AF4-AF9 inh: -2.0

COCC(=O)NC[C@@H]1N[C@@H](CO)[C@H]1c1ccc(-c2ccccc2F)cc1
  AF4-AF9 inh: 1.3

O=C(NCCO)c1cccc(-c2cnc3c(Nc4cccc(OC(F)(F)C(F)F)c4)nccn23)c1
  AF4-AF9 inh: -3.6

C[C@@H]1CN([C@@H](C)CO)C(=O)c2cc(NC(=O)Cn3cnnn3)ccc2O[C@@H]1CN(C)C
  AF4-AF9 inh: -3.5

CNC[C@@H]1Oc2c(NS(C)(=O)=O)cccc2C(=O)N([C@H](C)CO)C[C@@H]1C
  AF4-AF9 inh: -1.8

CC(=O)NC[C@H]1[C@@H](c2ccc(C#CC(C)C)cc2)[C@@H](CO)N1C(=O)C1CC1
  AF4-AF9 inh: -1.2

O=C(OCC(=O)N1CCc2ccccc21)c1ccccc1[N+](=O)[O-]
  AF4-AF9 inh: 5.4

COc1cccc(C(=O)Nc2ccc3c(c2)OC[C@H](C)N(CCc2ccccc2)C[C@@H](C)[C@@H](OC)CN(C)C3=O)c1
  AF4-AF9 inh: 4.9&-0.8

CC(C)c1cccc(C(C)C)c1Nc1cn[nH]c1
  AF4-AF9 inh: 6.4

O=C(C1CCC1)N1C[C@H]2[C@@H](c3ccccc31)[C@H](CO)N2C(=O)Nc1cccc(F)c1
  AF4-AF9 inh: 1.5

CC=Cc1ccc2n(c1=O)C[C@H]1[C@H](CO)[C@@H](C(=O)NCc3ccc(F)cc3)N(Cc3cncnc3)[C@@H]21 (mixture of isomers)
  AF4-AF9 inh: 1.1

C[C@H]1CCCCO[C@H](CN(C)Cc2ccc(C(F)(F)F)cc2)[C@@H](C)CN([C@@H](C)CO)C(=O)c2cc(NS(=O)(=O)c3ccc(F)cc3)ccc2O1
  AF4-AF9 inh: 1.4

C[C@H]1CN([C@@H](C)CO)C(=O)c2cccc(NS(=O)(=O)c3ccc(Cl)cc3)c2O[C@H]1CN(C)S(C)(=O)=O
  AF4-AF9 inh: -2.6

OC[C@H]1O[C@@H](c2nc(-c3ccc(CN4CCOCC4)cc3)no2)[C@H](O)[C@@H](O)[C@H]1O
  AF4-AF9 inh: -1.3

Cc1noc(C)c1S(=O)(=O)N(C)C[C@H]1Oc2ccc(NC(=O)Nc3cccc4ccccc34)cc2CC(=O)N([C@H](C)CO)C[C@H]1C
  AF4-AF9 inh: -1.3

COc1ccc(NC(=O)Nc2ccc3c(c2)C(=O)N([C@H](C)CO)C[C@H](C)[C@H](CN(C)S(=O)(=O)c2ccc(F)cc2)OCCCC[C@H](C)O3)cc1
  AF4-AF9 inh: -1.6

Cc1ccc(S(=O)(=O)N(C)C[C@@H]2Oc3ccc(NC(=O)Nc4cccc5ccccc45)cc3CC(=O)N([C@H](C)CO)C[C@@H]2C)cc1
  AF4-AF9 inh: -0.5

C[C@@H]1CN([C@@H](C)CO)C(=O)c2cc(C3=CCCC3)cnc2O[C@H]1CN(C)C(=O)c1ccc(F)cc1
  AF4-AF9 inh: 1.6

CN(C)CC(=O)N[C@@H]1CC[C@H](CCNC(=O)C2CCCCC2)O[C@@H]1CO
  AF4-AF9 inh: -0.4

COc1cccc(S(=O)(=O)Nc2ccc3c(c2)[C@H]2C[C@@H](CC(=O)N4CCCCC4)O[C@H](CO)[C@H]2O3)c1
  AF4-AF9 inh: 1.0

C[C@H]1Cn2cnc(C(=O)N3CCN(C(=O)OC(C)(C)C)CC3)c2C(=O)N1
  AF4-AF9 inh: -1.8

CCCN(C)C[C@@H]1OCCCC[C@@H](C)Oc2ccc(NS(=O)(=O)c3ccc(C)cc3)cc2C(=O)N([C@@H](C)CO)C[C@@H]1C
  AF4-AF9 inh: 4.5

CC(C)Cn1cc(-c2cccc3nccn23)cn1
  AF4-AF9 inh: -7.5

O=C(Nc1ccc(F)cc1)N1C[C@H]2[C@@H](c3ccccc31)[C@H](CO)N2C(=O)c1ccccn1
  AF4-AF9 inh: -0.7

COc1ccc(S(=O)(=O)Nc2ccc3c(c2)CC(=O)N([C@H](C)CO)C[C@@H](C)[C@H](CN(C)Cc2ccc(Oc4ccccc4)cc2)O3)cc1
  AF4-AF9 inh: 3.6

O=C1NC[C@H](CCCCN2CCN(CCC3CCCCC3)C(=O)C2=O)N(CCc2ccccc2)C1=O
  AF4-AF9 inh: 3.5

C[C@@H]1CN([C@H](C)CO)C(=O)c2cc(NS(=O)(=O)c3ccccc3)ccc2O[C@@H](C)CCCCO[C@H]1CN(C)S(=O)(=O)c1ccc(Cl)cc1
  AF4-AF9 inh: -0.3

Cc1noc(C)c1S(=O)(=O)Nc1cccc2c1O[C@H](CN(C)CC1CCCCC1)[C@H](C)CN([C@@H](C)CO)C2=O
  AF4-AF9 inh: 0.2

C[C@H](CO)N1C[C@H](C)[C@H](CN(C)C(=O)Nc2cccc3ccccc23)Oc2ccc(NC(=O)Nc3ccc(F)cc3)cc2C1=O
  AF4-AF9 inh: -0.8

C/C=C/c1ccc([C@H]2[C@@H](CO)N(S(C)(=O)=O)[C@@H]2CN(C)C(=O)CC)cc1
  AF4-AF9 inh: 1.5

C[C@H](CO)N1C[C@H](C)[C@H](CN(C)C(=O)c2ccccc2)Oc2cc(C3=CCCC3)ccc2S1(=O)=O
  AF4-AF9 inh: 0.3

CCCC#Cc1ccc2c(c1)O[C@H](CN(C)C(=O)c1ccccn1)[C@@H](C)CN([C@H](C)CO)S2(=O)=O
  AF4-AF9 inh: -14

COc1ccccc1NC(=O)N[C@H]1CC[C@@H](CC(=O)N[C@@H](C)c2ccccc2)O[C@H]1CO
  AF4-AF9 inh: -2.1

C[C@@H]1CCCCO[C@@H](CN(C)C(=O)CCCN(C)C)[C@H](C)CN([C@@H](C)CO)C(=O)c2cc(NC(=O)C3CCCCC3)ccc2O1
  AF4-AF9 inh: -4.1

The list goes on.
smiles	AF4-AF9 inh
O=C(Nc1ccc(F)cc1)N[C@H]1CC[C@@H](CCn2cc(-c3ccccc3F)nn2)O[C@@H]1CO	-1.5
C[C@@H]1CN([C@@H](C)CO)C(=O)c2cc(N(C)C)ccc2O[C@@H]1CN(C)C(=O)Nc1ccc(C(F)(F)F)cc1	7.0
C[C@@H]1CN([C@H](C)CO)C(=O)c2cc(C#CC3CCCCC3)cnc2O[C@@H]1CN(C)S(=O)(=O)c1cccc(F)c1	-7.3
CCN(CC)C(=O)c1cccc(-c2csc(C(O)c3ccc(F)c(F)c3)n2)c1 (stereo not given)	8.2
CCCNC(=O)C[C@H]1CC[C@H]2[C@@H](COc3ccc(NC(=O)c4cc(C)on4)cc3C(=O)N2C)O1	-15
C[C@H]1CCCCO[C@H](CN(C)C(=O)NC2CCCCC2)[C@@H](C)CN([C@@H](C)CO)C(=O)c2cc(NC(=O)CCCN(C)C)ccc2O1	0.1
C[C@H](CO)N1C[C@H](C)[C@H](CN(C)Cc2ccc(C(F)(F)F)cc2)Oc2ccc(NC(=O)Cc3cn(C)c4ccccc34)cc2C1=O	1.3
C[C@H](CO)N1C[C@H](C)[C@@H](CN(C)Cc2ccccc2)Oc2cc(-c3ccncc3)ccc2S1(=O)=O	-5.9
CN1CCN(C(=O)C[C@@H]2C[C@@H]3c4cc(NC(=O)CC5CC5)ccc4O[C@@H]3[C@H](CO)O2)CC1	-13
CCc1nc2ccc(C(=O)N3CCN(C(=O)c4ccco4)CC3)cn2c1N(C)Cc1nccn1C	-3.9
CNC[C@H]1OCCCC[C@H](C)Oc2ccc(NS(=O)(=O)c3ccc(Cl)cc3)cc2C(=O)N([C@@H](C)CO)C[C@@H]1C	u
Cc1ccc(S(=O)(=O)N[C@H]2CC[C@H](CCNC(=O)c3ccccc3F)O[C@@H]2CO)cc1	-8.5
C[C@@H]1CN([C@H](C)CO)C(=O)c2cc(NC(=O)C3CC3)ccc2O[C@H]1CN(C)S(=O)(=O)c1ccccc1	-2.0
C[C@H](CO)N1C[C@H](C)[C@H](CN(C)C(=O)NC2CCCCC2)Oc2c(NC(=O)C3CCCCC3)cccc2C1=O	-1.0
CN(C)C(=O)C[C@H]1CC[C@H](NC(=O)C2CCOCC2)[C@H](CO)O1	1.1
Cc1nnc2sc(SCC(=O)N3CCc4ccccc43)nn2c1=O	7.4
C[C@@H]1CN([C@H](C)CO)S(=O)(=O)c2ccc(C#CC(C)(C)O)cc2O[C@H]1CN(C)C(=O)C1CCC1	-2.6
Cc1noc(C)c1NC(=O)Nc1cccc2c1O[C@H](CN(C)Cc1ccc(Oc3ccccc3)cc1)[C@H](C)CN([C@H](C)CO)C2=O	2.0
Cc1cc(C(=O)Nc2cccc3c2O[C@@H](CN(C)S(=O)(=O)c2ccc(F)cc2)[C@@H](C)CN([C@@H](C)CO)C3=O)n(C)n1	-2.7
COc1ccc(NC(=O)Nc2cccc3c2O[C@H](CN(C)Cc2ccc(Oc4ccccc4)cc2)[C@@H](C)CN([C@@H](C)CO)C3=O)cc1	-3.0
O=C(N[C@H]1CC[C@H](CC(=O)N2CCCCC2)O[C@@H]1CO)c1ccccn1	0.7
C[C@H](CO)N1C[C@H](C)[C@H](CN(C)Cc2cncnc2)Oc2cc(-c3ccncc3)ccc2S1(=O)=O	-2.9
CC(=O)Nc1ccc(-c2ccnc3c2CC(C(=O)NCC2CCOCC2)O3)cc1 (stereo not given)	-1.3
C[C@H](CO)N1C[C@H](C)[C@H](CN(C)Cc2ccc(C(=O)Nc3ccccc3N)cc2)Oc2ccc(NS(C)(=O)=O)cc2CC1=O	0.2
COc1ccc(S(=O)(=O)Nc2ccc3c(c2)C(=O)N([C@@H](C)CO)C[C@@H](C)[C@@H](CN(C)S(=O)(=O)c2cn(C)cn2)OCCCC[C@@H](C)O3)cc1	0.2
COc1ccc(CN(C)C[C@H]2Oc3c(NC(=O)Nc4ccc5c(c4)OCO5)cccc3C(=O)N([C@@H](C)CO)C[C@H]2C)cc1	8.4
Cc1ccc(-c2ccc([C@H]3[C@@H](CO)N4CCCCN(S(=O)(=O)c5cccc(C)c5)C[C@@H]34)cc2)cc1	-6.3
CCCS(=O)(=O)NC(=O)C1(C)CCN(C(=O)c2snnc2C)C1 (stereo not given)	0.1
C[C@@H]1CCCCO[C@@H](CN(C)Cc2ccc3c(c2)OCO3)[C@@H](C)CN([C@H](C)CO)C(=O)c2cc(NC(=O)NC3CCCCC3)ccc2O1	1.4
CN1[C@@H]2c3ccc(/C=C/c4ccccc4)c(=O)n3C[C@@H]2[C@@H](CO)[C@@H]1C(=O)N1CCCCC1	-2.4
O=S(=O)(NCC[C@@H]1CC[C@@H](NS(=O)(=O)c2cccc(Cl)c2)[C@H](CO)O1)c1cccc(F)c1	1.8
COc1ccc(CNC(=O)C[C@H]2CC[C@@H](NC(=O)Nc3ccc4c(c3)OCO4)[C@H](CO)O2)cc1	-12
COCC(=O)Nc1ccc2c(c1)[C@H]1C[C@@H](CC(=O)NCCN3CCCCC3)O[C@H](CO)[C@H]1O2	-4.3

Arranged by molar mass (low to high): part of the list above
smiles	AF4-AF9 inh
CCCS(=O)(=O)NC(=O)C1(C)CCN(C(=O)c2snnc2C)C1 (stereo not given)	0.1
CN1[C@@H]2c3ccc(/C=C/c4ccccc4)c(=O)n3C[C@@H]2[C@@H](CO)[C@@H]1C(=O)N1CCCCC1	-2.4
COCC(=O)Nc1ccc2c(c1)[C@H]1C[C@@H](CC(=O)NCCN3CCCCC3)O[C@H](CO)[C@H]1O2	-4.3

A portion from the list above, as a working copy:
smiles	AF4-AF9 inh
COc1ccc(CNC(=O)C[C@H]2CC[C@@H](NC(=O)Nc3ccc4c(c3)OCO4)[C@H](CO)O2)cc1	-12
COCC(=O)Nc1ccc2c(c1)[C@H]1C[C@@H](CC(=O)NCCN3CCCCC3)O[C@H](CO)[C@H]1O2	-4.3

This is a subset; rates above refer to the full screens.
